HSV augment = enhancers of HSV replication in host cells, fold increase, host cell viability | HSV replication augmentation in cells | maximum fold increase | actives 0.005% (n = 220,000) | AID 1956, 2009;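 active means peak rise of 1.5-fold or more in the series; tested in PC3 cells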;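 further: first round at 10 µM; read as green reporter fluorescence; hits show the peak of a series up to 25 µM; 1 = signal of infected wells without compound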
GALR2 agonist = GALR2 receptor agonists, primary screen, cell-based. GALR2-expressing cells, agonist activation read-out. Galanin receptor type 2 (Homo sapiens), O43603. activation, %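 (tested at 5 µM)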. actives 0.48% (n = 140,000). AID 803, 2007;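 active means above mean plus 3 SD of all compounds, about 5% in these data, not always enough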;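 further: 0% = vehicle buffer wells and 100% = reference agonist at full effect; tested in CHO reporter cells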
Target sequence (O43603 whole entry, looked up): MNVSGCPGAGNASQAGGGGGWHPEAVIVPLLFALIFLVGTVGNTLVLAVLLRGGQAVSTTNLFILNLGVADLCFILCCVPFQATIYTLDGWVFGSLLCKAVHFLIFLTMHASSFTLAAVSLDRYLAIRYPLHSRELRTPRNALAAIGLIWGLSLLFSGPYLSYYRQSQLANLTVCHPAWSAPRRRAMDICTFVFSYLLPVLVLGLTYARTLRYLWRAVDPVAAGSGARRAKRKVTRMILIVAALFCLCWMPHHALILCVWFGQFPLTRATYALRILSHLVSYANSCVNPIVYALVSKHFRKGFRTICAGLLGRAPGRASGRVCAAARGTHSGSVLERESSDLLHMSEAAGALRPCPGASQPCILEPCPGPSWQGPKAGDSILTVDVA
RGS16-Gao = modulators of RGS16 binding to Galphao, primary screen, biochemical, human proteins, multiplexed bead flow cytometry; AID 1441, 2008; binding response (% of control), % at 10 µM; Regulator of G-protein signaling 16 (Homo sapiens) + Guanine nucleotide-binding protein …; bead-based flow cytometry RGS16-Galphao binding, fluorescence; actives lie on both sides; actives 0.38% (n = 220,000);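 active means below 25% or above 175%, edge rows of some plates excepted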;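 further: Galphao activated by GDP with aluminum fluoride before binding; 100% = wells without compound and 0% = beads without RGS; some results beyond the cut were filed as inactive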
Target sequence (O15492 whole entry, looked up): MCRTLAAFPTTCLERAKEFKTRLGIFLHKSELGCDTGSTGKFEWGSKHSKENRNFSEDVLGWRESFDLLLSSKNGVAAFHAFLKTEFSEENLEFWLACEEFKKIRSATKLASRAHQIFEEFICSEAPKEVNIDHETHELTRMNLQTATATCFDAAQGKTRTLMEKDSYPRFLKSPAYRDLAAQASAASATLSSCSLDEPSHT
Target sequence (P09471 whole entry, looked up): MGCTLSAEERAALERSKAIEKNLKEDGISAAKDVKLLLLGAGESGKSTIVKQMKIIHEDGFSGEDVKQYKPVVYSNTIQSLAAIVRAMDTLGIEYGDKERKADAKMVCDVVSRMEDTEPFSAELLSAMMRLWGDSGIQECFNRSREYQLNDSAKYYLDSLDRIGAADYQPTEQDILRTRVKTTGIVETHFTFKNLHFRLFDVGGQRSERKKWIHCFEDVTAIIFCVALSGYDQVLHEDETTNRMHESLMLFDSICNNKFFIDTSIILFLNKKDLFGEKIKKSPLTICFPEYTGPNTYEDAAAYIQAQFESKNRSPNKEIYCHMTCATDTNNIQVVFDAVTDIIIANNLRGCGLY
PKD1 kinase inh = inhibitors of human PKD1 kinase, biochemical, fluorescence polarization; PKD1 kinase fluorescence polarization assay; Serine/threonine-protein kinase D1 (Homo sapiens), Q15139; inhibition, %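 (about 10 µM by stock and volumes)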; actives 0.056% (n = 200,000);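 active means inhibition of 50% or more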;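 further: controls were vehicle for no effect and a reference inhibitor for full effect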
INS promoter inh = inhibitors of insulin promoter-driven GFP, primary screen, imaging, TRM-6 cells (human fetal islet line), eGFP reporter, cell count | actives 0.9% (n = 130,000) | inhibition, % at 2 µM | AID 1273, 2008 | reporter expression induced with tamoxifen;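 active means inhibition above the mean plus 3 SD, with well images judged a real hit on visual review, cut at about 60% in these data, passing the limit was not always enough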
INS promoter inh cell count = second read-out of INS promoter inh, no call of its own (marks repeat the call); normalized cell count, %; measured here: cell count, toxicity; reference of the scale not given here;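 cells exposed to compound for 48 h; stained nuclei by imaging scaled within each plate; lower means fewer cells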
HSV augment primary fold = further read-out of HSV augment, marked with its call; fold increase; compound at 10 µM; measured here: primary screen fold increase 10 uM; tested in PC3 cells;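 GFP signal in the first replicate; 1 = infected wells without compound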
* marks the source's active call; other numbers are inactive results; i = inactive; / = no result given.

| smiles | HSV augment | HSV augment primary fold | GALR2 agonist | RGS16-Gao | PKD1 kinase inh | INS promoter inh | INS promoter inh cell count |
| --- | --- | --- | --- | --- | --- | --- | --- |
| O=C1CC(SC(=Nc2ccccc2)Nc2ccccc2)C(=O)N1c1cccc(Cl)c1 (configuration not stated) | i | 0.93 | -2.9 | 102 | 0 | 33 | 99 |
| CCC(C)c1ccc(NC(=S)NCc2ccccc2OC)cc1 (configuration not stated) | i | 0.89 | / | 114 | 10 | / | / |
| Cc1noc(C)c1S(=O)(=O)N1CCC(C(=O)Nc2ccccn2)CC1 | i | 0.88 | -0.3 | 103 | -3 | -14 | 82 |
| CCn1c(=O)c2cc(C(=O)NC(C)C)sc2c2ccccc21 | i | 0.9 | / | 100 | / | / | / |
| Cc1cccc(C(=O)NNc2ncnc3c2cnn3C)c1 | i | 0.9 | / | 100 | -3 | 8 | 179 |
| COc1ccc(NC(=O)CSc2ccccc2)c(OC)c1 | i | 0.77 | -1.8 | 110 | 1 | -317 | 53 |
| CC(/C=C/C1(O)C(C)CC(O)CC1(C)C)OC1OC(CO)C(O)C(O)C1O (configuration not stated) | i | 0.61 | / | 96 | / | / | / |
| CC1CCN(c2ccccc2NC(=S)NC(=O)C(C)(C)C)CC1 | i | 0.84 | / | 92 | 1 | -65 | 39 |
| CCCCCCC1CCC(C(=O)NC(CCSC)C(=O)NC(C(=O)OC)C(C)C)CC1 (configuration not stated) | i | 0.97 | -2.3 | 112 | 0 | -33 | 137 |
| CCOCCCn1c(=S)[nH]c2cc(C(=O)N3CCC(C(N)=O)CC3)ccc2c1=O | i | 0.65 | -1.9 | 103 | -11 | / | / |
| O=[N+]([O-])c1ccc(C2NS(=O)(=O)N=C3CCCCCN32)cc1 (configuration not stated) | i | 0.96 | / | 102 | / | / | / |
| CC1=C(C)CC(C(=O)Nc2cccc([N+](=O)[O-])c2)C(C(=O)O)C1 (configuration not stated) | i | 1 | -0.8 | 101 | -9 | -25 | 137 |
| O=C(O)/C(=C\c1cccs1)c1ccc(F)cc1 | i | 0.96 | / | 101 | -5 | 6 | 95 |
| CC(=O)C1C(c2ccccc2)c2c(n[nH]c2C)CC1(C)O (configuration not stated) | i | 0.87 | -1.5 | 102 | -4 | -190 | 140 |
| O=C1/C(=C/c2ccncc2)SC(=S)N1C1CCS(=O)(=O)C1 (configuration not stated) | i | 0.94 | -0.2 | 109 | -9 | 0 | 124 |
| COc1cccc(Oc2ccc3nnc(C(F)(F)F)n3n2)c1 | i | 1.1 | / | 85 | -2 | 18 | 81 |
| S=C1NCN(Cc2ccco2)CN1c1ccccc1 | i | 0.96 | / | 99 | / | / | / |
| Cc1cccc(-n2cnc(C(=O)NC3CCCCCC3)c2)n1 | i | 0.74 | -0.2 | 100 | -1 | -34 | 128 |
| CCCCc1c(O)nc(SCCC(=O)O)[nH]c1=O | i | 0.95 | -0.9 | 88 | -7 | / | / |
| CCCCN1C(=O)NC(NC(=O)c2ccco2)(C(F)(F)F)C1=O (configuration not stated) | i | 0.73 | -1.0 | 115 | -6 | 23 | 39 |

An excerpt from the list above:
| smiles | HSV augment | HSV augment primary fold | GALR2 agonist | RGS16-Gao | PKD1 kinase inh | INS promoter inh | INS promoter inh cell count |
| --- | --- | --- | --- | --- | --- | --- | --- |
| O=C1CC(SC(=Nc2ccccc2)Nc2ccccc2)C(=O)N1c1cccc(Cl)c1 (configuration not stated) | i | 0.93 | -2.9 | 102 | 0 | 33 | 99 |
| CCC(C)c1ccc(NC(=S)NCc2ccccc2OC)cc1 (configuration not stated) | i | 0.89 | / | 114 | 10 | / | / |

Next section:
| smiles | HSV augment | HSV augment primary fold | GALR2 agonist | RGS16-Gao | PKD1 kinase inh | INS promoter inh | INS promoter inh cell count |
| --- | --- | --- | --- | --- | --- | --- | --- |
| Cc1ccc(C)c(C(=O)CCC(=O)O)c1 | i | 0.91 | / | 96 | / | / | / |
| NNC(=O)c1oc2ccccc2c1-n1cccc1 | i | 0.7 | / | 98 | 0 | / | / |
| Cc1cc(C)n(NC(=S)NC2CCCCC2)c(=O)c1C#N | i | 0.93 | / | 98 | / | / | / |
| O=C(O)CCC(=O)N1CCC[C@H]1C(=O)O | i | 0.71 | / | 106 | / | / | / |
| Cc1nn(C)cc1/C=N/NC(=S)Nc1ccccc1 | i | 0.96 | -0.6 | 89 | 4 | -21 | 106 |
| O=C(O)c1ccc(-c2ccc(/C=C3\NC(=O)N(Cc4ccc(Cl)cc4)C3=O)o2)cc1 | i | 1.1 | / | 98 | / | / | / |
| COCCN(C(=O)Nc1ccc(OC)cc1OC)C1CCN(C(C)=O)CC1 | i | 1 | -1.3 | 104 | 6 | / | / |
| COc1cccc(-n2c(SCC(=O)OC(C)C)nnc2-c2cccnc2)c1 | / | / | -3.0 | 69 | -12 | 63 | 146 |
| COc1ccc(/C=C/C(=O)c2ccccc2)cc1Cn1nnc2ccccc21 | i | 0.69 | -2.0 | 99 | -8 | / | / |
| C/C(=N\NC(=O)CNC(=O)c1ccc2c(c1)OCCO2)c1ccco1 | i | 1.2 | / | 104 | / | / | / |
| CCN(c1cccc(C(F)(F)F)c1)S(=O)(=O)c1ccc2c(c1)CCN2C(C)=O | i | 0.9 | -0.8 | 71 | -2 | 45 | 56 |
| CC(O)CCc1ccc(O)cc1 (configuration not stated) | i | 0.79 | / | 99 | -9 | / | / |
| Cc1ccc(S(=O)(=O)c2c[nH]c3cc4c(cc3c2=O)OCO4)cc1 | i | 1.3 | / | 97 | / | / | / |
| CCc1ccc(-c2nc(CN3CCC(C(=O)NCCc4ccc(OC)c(OC)c4)CC3)c(C)o2)cc1 | i | 0.58 | -1.7 | 92 | -4 | / | / |
| CCCN1CCC(NC(=O)Nc2ccc(OC)c(OC)c2)CC1 | i | 0.82 | 0.2 | 112 | -4 | 65 | 120 |
| Cn1c(Cl)nc2c1c(=O)n(Cc1cccc(Br)c1)c(=O)n2C | i | 1.1 | -0.8 | 77 | 5 | / | / |
| Cc1ccc(-c2ccc([C@H]3[C@@H]4C=CCC[C@@]4(C)C(=O)N3Cc3ccccc3)c(F)c2)cc1 | i | 0.55 | / | 106 | / | / | / |
| COc1ccccc1C1=NN(C(=S)Nc2ccccc2)C(c2ccco2)C1 (configuration not stated) | / | / | -3.4 | 102 | -1 | 15 | 91 |
| COC(=O)c1cc(OC)c(OC)cc1-n1cnc2cc(OC)c(OC)cc2c1=O | i | 0.83 | -3.2 | 104 | -14 | / | / |
| Cc1ccc(SCC(=O)N=C2NC(=O)CS2)cc1 | i | 1.3 | / | 98 | -1 | 61 | 66 |
| O=C(O)CCN1C(=O)c2ccccc2C1=O | i | 1 | -2.7 | 107 | -1 | 58 | 39 |
| Cc1ccc(C(=O)COc2cc(C)nc3nncn23)cc1 | i | 1.1 | / | 104 | / | / | / |
| COc1ccc(NC(=O)CSc2nnc(N)s2)c([N+](=O)[O-])c1 | i | 0.92 | / | 102 | 2 | / | / |
| CC(C)CC(=O)Nc1c2c(nn1-c1ccc(F)cc1)CSC2 | / | / | -0.4 | 94 | 0 | 0 | 88 |
| NS(=O)(=O)c1ccc(NC=C2C(=O)OC3(CCCCC3)OC2=O)cc1 | i | 0.99 | 0.0 | 102 | -7 | -33 | 111 |
| Clc1ccc(CNC2CCCC2)cc1 | i | 0.93 | -1.6 | 101 | 2 | -6 | 70 |
| COc1cc([N+](=O)[O-])ccc1-c1ccc(/C=N/NC(N)=O)o1 | i | 1.1 | / | 91 | / | / | / |
| Cc1ccc(C(=O)CC2(O)C(=O)N(C)c3ccccc32)o1 (configuration not stated) | i | 0.87 | -2.4 | 101 | -4 | / | / |
| O=C(C1CCC1)N1CCc2cc(S(=O)(=O)NCC3COc4ccccc4O3)ccc21 (configuration not stated) | i | 1 | -1.4 | 77 | -19 | 25 | 64 |
| O=C(CCNC(=O)c1ccccc1)Oc1ccc([N+](=O)[O-])cc1 | i | 0.88 | 0.1 | 103 | -8 | -14 | 118 |
| O=C(NCc1ccco1)c1cc(-c2ccc3c(c2)OCO3)on1 | i | 1.2 | -2.9 | 104 | -11 | 25 | 134 |
| COc1ccc(OC)c(NC(=O)N2CCCC(C(=O)c3ccccc3OC)C2)c1 (configuration not stated) | i | 1.1 | / | 106 | -2 | 7 | 101 |
| O=C(NC(=S)Nc1ccc(Cl)cn1)C(c1ccccc1)c1ccccc1 | i | 0.81 | -1.2 | 96 | -4 | 7 | 71 |
| O=S1(=O)N=C2CCCCCN2C(c2ccccc2)N1 (configuration not stated) | i | 0.91 | / | 100 | 5 | -89 | 107 |
| CCc1nc2c(sc3nc4c(cc32)COC(C)(C)C4)c(=O)n1Cc1ccccc1 | i | 0.98 | -1.6 | 95 | 1 | / | / |
| O=S(=O)(c1cc(C(F)(F)F)ccc1Cl)N1CCN(c2ccccn2)CC1 | i | 0.91 | / | 101 | / | / | / |
| COC(=O)Cn1c(=O)oc2ccc(C)cc21 | i | 0.99 | / | 112 | 0 | 7 | 117 |
| Fc1ccc(Nc2nc(Oc3ccccc3F)nc(N3CCCC3)n2)cc1 | i | 0.93 | 1.0 | 107 | 0 | 16 | 107 |
| CCSc1nn2c(=O)c3ccccc3nc2s1 | i | 0.97 | -0.9 | 86 | -13 | -103 | 84 |
| C/C(Cc1ccccc1)=N\NC(=O)CNC(=O)c1ccc(Cl)cc1 | i | 0.89 | / | 107 | / | / | / |
| CCOC(=O)c1sc(N(Cc2ccccc2)C(=O)COC(=O)c2ccc(O)cc2)nc1C | i | 0.91 | 3.8 | 95 | -15 | 0 | 93 |
| C#CCOc1nc(OCC#C)nc(OCC#C)n1 | i | 0.88 | -2.2 | 107 | -4 | / | / |

Compounds above that contain a furan ring, fused or not (9):
| smiles | HSV augment | HSV augment primary fold | GALR2 agonist | RGS16-Gao | PKD1 kinase inh | INS promoter inh | INS promoter inh cell count |
| --- | --- | --- | --- | --- | --- | --- | --- |
| S=C1NCN(Cc2ccco2)CN1c1ccccc1 | i | 0.96 | / | 99 | / | / | / |
| CCCCN1C(=O)NC(NC(=O)c2ccco2)(C(F)(F)F)C1=O (configuration not stated) | i | 0.73 | -1.0 | 115 | -6 | 23 | 39 |
| NNC(=O)c1oc2ccccc2c1-n1cccc1 | i | 0.7 | / | 98 | 0 | / | / |
| O=C(O)c1ccc(-c2ccc(/C=C3\NC(=O)N(Cc4ccc(Cl)cc4)C3=O)o2)cc1 | i | 1.1 | / | 98 | / | / | / |
| C/C(=N\NC(=O)CNC(=O)c1ccc2c(c1)OCCO2)c1ccco1 | i | 1.2 | / | 104 | / | / | / |
| COc1ccccc1C1=NN(C(=S)Nc2ccccc2)C(c2ccco2)C1 (configuration not stated) | / | / | -3.4 | 102 | -1 | 15 | 91 |
| COc1cc([N+](=O)[O-])ccc1-c1ccc(/C=N/NC(N)=O)o1 | i | 1.1 | / | 91 | / | / | / |
| Cc1ccc(C(=O)CC2(O)C(=O)N(C)c3ccccc32)o1 (configuration not stated) | i | 0.87 | -2.4 | 101 | -4 | / | / |
| O=C(NCc1ccco1)c1cc(-c2ccc3c(c2)OCO3)on1 | i | 1.2 | -2.9 | 104 | -11 | 25 | 134 |

Source: PubChem (several laboratories)
